E coli growth: blocks Escherichia coli growth; 0.21% of 330,000 active; OD600, 23 h; active compounds read low; OD600 absorbance (concentration not given with the values);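 active = OD600 absorbance below the run mean of sample wells minus 3.6 SD, in any replicate, cut at about 0.56 in these data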;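 also: stock transfer was 300 nL into about 60 µL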
LANA-H2B inh: blocks KSHV LANA binding to histone H2A/H2B. cell-free LANA-H2A/H2B peptide, fluorescence polarization. inhibition, % (test concentration not listed). 0.6% of 320,000 active; in the data active = inhibition mostly above about 10%, no sharp cut-off; inactive = mostly below about 6.7%;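 also: stock transfer was 7.5 nL into about 10 µL; 0% = median of vehicle wells and 100% = median of positive control wells; one replicate is shown; the record names a cut of 25% in any replicate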
UCH37 DUB inh: inhibitors of human deubiquitinating enzyme UCH37; inhibition, % (concentration not given with the values); Q9Y5K5; 0.33% of 330,000 active; AID 588478; purified proteasome/UCH37, Ub-AMC cleavage fluorescence;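 active = mean of two replicates above 20%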;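 also: 0% = compound-free wells with enzyme and 100% = wells lacking proteasome; stock transfer was 100 nL into about 20 µL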
Target sequence (Q9Y5K5 whole entry, looked up): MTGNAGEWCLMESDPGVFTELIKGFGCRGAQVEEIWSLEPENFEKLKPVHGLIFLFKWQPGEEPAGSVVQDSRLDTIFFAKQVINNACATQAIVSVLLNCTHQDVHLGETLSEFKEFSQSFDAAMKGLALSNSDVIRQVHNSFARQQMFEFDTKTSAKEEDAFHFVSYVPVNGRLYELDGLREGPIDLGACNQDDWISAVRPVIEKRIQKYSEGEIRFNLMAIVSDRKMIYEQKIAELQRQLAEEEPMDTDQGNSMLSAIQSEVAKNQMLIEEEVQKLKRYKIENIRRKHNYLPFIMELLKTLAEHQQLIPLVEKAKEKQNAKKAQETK
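System: Proteasome-associated human UCH37 deubiquitinase; Input: 0.15 nM proteasome in added enzyme buffer; Also added: Ub-AMC substrate from 1 µM stock; Incubation: 30 min compound-proteasome preincubation then 25 min substrate reaction, room temperature; Detection: fluorescence, ex 355 nm, em 460 nm; Read-out: % inhibition of Ub-AMC cleavage fluorescence; Benchmarks: no-proteasome and no-compound wells.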
Vif TR-FRET: inhibitors of Vif binding to APOBEC3G peptide, primary screen, biochemical, TR-FRET, GST-Vif 1-94, biotin-A3G peptide, dose response retest (AID 1117319) | TR-FRET GST-Vif / biotin-A3G peptide binding; higher % means a stronger effect; test concentration not given here; strong numbers were not always called active | inhibition, %, or IC50 in µM where a hit was titrated | 0.57% of 260,000 active;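 active = above the screen mean plus three standard deviations and confirmed in dose response; inconclusive = results disagree or hit not tested in dose response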;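 also: Vif residues 1-94 fused to GST binding biotinylated APOBEC3G peptide 110-148; 0% = full assay without inhibitor and 100% = GST in place of GST-Vif; retest series ran down from 100 µM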
B2AR ag: activates human beta-2 adrenergic receptor causing internalization. response, % (concentration not given with the values). 0.43% of 340,000 active. P07550. AID 504454. Am2.2-beta2AR cells, FAP receptor internalization, flow cytometry; reference of the scale not given here;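 active = response above a set limit, near 3 SD of response in nonfluorescent compounds, cut at about 42% in these data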;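 also: stock transfer was 100 nL into about 11 µL; a reference agonist was the positive control; negative values mostly stem from fluorescent compounds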
Target sequence (P07550 whole entry, looked up): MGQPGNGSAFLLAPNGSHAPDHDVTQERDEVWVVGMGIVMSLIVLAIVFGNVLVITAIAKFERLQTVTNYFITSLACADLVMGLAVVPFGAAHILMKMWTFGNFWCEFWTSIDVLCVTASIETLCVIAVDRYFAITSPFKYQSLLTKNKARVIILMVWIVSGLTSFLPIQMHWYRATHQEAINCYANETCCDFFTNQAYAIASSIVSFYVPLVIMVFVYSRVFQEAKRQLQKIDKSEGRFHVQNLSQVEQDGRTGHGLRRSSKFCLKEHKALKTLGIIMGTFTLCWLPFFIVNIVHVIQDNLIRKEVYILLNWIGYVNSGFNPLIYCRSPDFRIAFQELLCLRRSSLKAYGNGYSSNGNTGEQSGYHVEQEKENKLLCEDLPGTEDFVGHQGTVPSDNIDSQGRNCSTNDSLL
A1 inh: inhibitors of the anti-apoptotic protein A1, read as caspase activation. AID 2462. caspase activation, % (test concentration not listed). 0.066% of 330,000 active. MEF A1-2A-BIM cells, Caspase-Glo 3/7 luminescence, 3 h; percent of clofoctol response, vehicle zero;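 active = over half of replicate activation scores above 10%, or exactly half above 10 with the replicate mean above 10; inconclusive = replicate mean below 10 yet half the replicates above 10; inactive = over half of replicates below 10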;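 also: wells of about 30 µL received 50 nL stock; many hits fall short of the cut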
HNF4A DNA FP: change in binding of human HNF4 alpha to DNA; activity change, % at 10 µM; HNF4a-FITC DNA binding, fluorescence polarization, 1 h; 0.3% of 360,000 active; P41235; in the data active = activity change above about 30%, passing the limit was not always enough;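 also: controls were the assay level and a saturating level of protein; the project sought stronger binding though the title names inhibitors; some compounds called inactive have numbers as strong as hits; positive values seem to mean higher polarization but the record does not say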
* marks the source's active call; other numbers are inactive results; ? = inconclusive; / = not tested or not shown.

SMILES | E coli growth | LANA-H2B inh | UCH37 DUB inh | Vif TR-FRET | B2AR ag | A1 inh | HNF4A DNA FP
COc1ccc2nc(NC(=O)CSc3nnnn3C3CCCCC3)sc2c1 | 0.66 | -0.5 | -0.5 | 0% | 1 | 0.2 | 0.4
O=C(O)c1cccnc1Oc1ccccc1 | 0.68 | 3.6 | 4.6 | ? | 3 | 1.4 | 4.4
CCOc1ccc(C(=O)CCN2CCOCC2)cc1 | 0.66 | 3.3 | 1.7 | / | 7 | 1.0 | 3.1
CC(C)NS(=O)(=O)c1ccc(CCC(=O)Nc2ccc3c(c2)OCO3)cc1 | 0.71 | 2.7 | 1.1 | 24% | 6 | 0.5 | -0.7
CCOC(=O)C(=NCC1CCCO1)NNc1cc(Cl)ccc1Cl (stereo unspecified) | 0.66 | -8.0 | 1.4 | -4% | 3 | 1.6 | -2.0
O=[N+]([O-])c1ccc(/C=N/Nc2nc(N3CCCCC3)nc(N3CCCCC3)n2)cc1 | / | -10 | / | 5% | 6 | -1.1 | 0.4
CCCN(Cc1ccccc1)C(=S)Nc1ccc(C(C)=O)cc1 | 0.66 | 2.9 | 3.8 | -1% | -3 | 0.6 | -1.5
COc1cc(C2=Nc3c(c(C)nn3-c3ccccc3)P(=O)(N3CCOCC3)O2)cc(OC)c1OC (stereo unspecified) | 0.65 | 1.6 | 6.1 | 13% | -7 | 1.2 | -1.4
CC(C)(C)NCC(O)Cn1cc(C=O)c2ccccc21 (stereo unspecified) | 0.69 | -0.5 | 5.8 | 0% | 2 | 0.4 | 0.3
Cn1nnc2cc(C(=O)Nc3cccnc3)ccc21 | 0.7 | 4.5 | 6.4 | 7% | -10 | -0.5 | -0.7
CCOc1cccc(CN2CCCC(N3CCc4ccccc4C3)C2)c1O (stereo unspecified) | 0.71 | 2.4 | 2.8 | 7% | 3 | 0.3 | -0.2
O=C(NNC(=O)c1cccnc1)c1ccncc1 | 0.66 | 3.8 | 8.0 | / | -11 | -0.1 | 0.6
O=[N+]([O-])c1ccc(O)c(/C=N/NC(=S)Nc2ccc(Cl)cc2Cl)c1 | / | 0.8 | / | / | 13 | -1.9 | 2.3
COc1ccccc1-n1c(CNc2c(C)cccc2C)nnc1SCC(=O)N1CCOCC1 | 0.7 | 4.4 | 3.7 | -3% | 5 | 1.7 | 2.2
O=C(NCc1ccccn1)C1CCCN(S(=O)(=O)c2ccc(Br)cc2)C1 (stereo unspecified) | 0.81 | -1.4 | 3.4 | ? | 5 | -0.1 | 2.7
O=S(=O)(c1ccccc1)c1cnc(-c2cccnc2)nc1-c1ccc(Cl)cc1Cl | 0.69 | 4.6 | 2.1 | 9% | -6 | -0.6 | 3.8
CCc1onc(C)c1C(=O)O | 0.75 | -0.7 | 3.0 | 3% | 5 | 0.4 | -1.2
CCOC(=O)CSc1nc2c([nH]c3ccccc32)c(=O)n1C | 0.71 | 8.0 | 3.9 | -8% | 15 | 0.4 | -2.2
O=C(/C=C/c1ccccc1Cl)N1CCN(c2ncccn2)CC1 | 0.69 | 4.1 | 0.7 | / | 0 | -0.3 | -0.7
COc1cc(C(=S)N2CCOCC2)ccc1OS(=O)(=O)c1ccc(C)cc1 | / | 2.4 | / | ? | -8 | 0.1 | 1.3

The list goes on; it opens with the 4 that closed the last part.
SMILES | E coli growth | LANA-H2B inh | UCH37 DUB inh | Vif TR-FRET | B2AR ag | A1 inh | HNF4A DNA FP
CCc1onc(C)c1C(=O)O | 0.75 | -0.7 | 3.0 | 3% | 5 | 0.4 | -1.2
CCOC(=O)CSc1nc2c([nH]c3ccccc32)c(=O)n1C | 0.71 | 8.0 | 3.9 | -8% | 15 | 0.4 | -2.2
O=C(/C=C/c1ccccc1Cl)N1CCN(c2ncccn2)CC1 | 0.69 | 4.1 | 0.7 | / | 0 | -0.3 | -0.7
COc1cc(C(=S)N2CCOCC2)ccc1OS(=O)(=O)c1ccc(C)cc1 | / | 2.4 | / | ? | -8 | 0.1 | 1.3
CC(C)(C)OC(=O)NC(Cc1ccccc1)C(=O)N1CCC(C(=O)NCC(=O)Nc2ccc(F)cc2)CC1 (stereo unspecified) | 0.65 | 6.4 | -0.2 | / | 12 | 0.8 | -13
CCN(c1ccccc1)S(=O)(=O)c1ccc(N)cc1 | 0.74 | 1.7 | 7.3 | 25% | -11 | 1.8 | 3.8
Cc1ccc(S(=O)(=O)N2CCC[C@H]2C(=O)OCc2cc(=O)oc3cc(C)ccc23)cc1 | 0.73 | / | 2.9 | -3% | -1 | / | -1.4
O=C(CCNC(=O)c1ccc([N+](=O)[O-])cc1)Nc1ccccc1N1CCCCC1 | 0.62 | 4.1 | 0.9 | -2% | 1 | -0.2 | 1.5
CCn1cc(C(=O)NCc2ccccn2)c(=O)c2cc(F)c(N3CCN(C)CC3)cc21 | / | -3.7 | / | 16% | -6 | 0.6 | 4.2
Cc1sc(Cc2nc(O)cs2)nc1-c1ccccc1 | / | 2.6 | / | 10% | 3 | -0.5 | 5.9
O=C(O)c1ccc2c(c1)CC(c1ccccc1)OC2=O (stereo unspecified) | 0.75 | -3.5 | -2.7 | 14% | -2 | 1.5 | 5.8
CCNc1ccc(C(=O)OCC(=O)N2c3ccccc3NC(=O)C2(C)C)cc1[N+](=O)[O-] | 0.7 | -4.4 | 2.6 | 3% | -6 | -0.7 | -2.1
O=c1c2c(nc3cc(-c4cccc(F)c4)[nH]n13)CCC2 | / | 4.8 | / | -8% | 1 | -0.7 | 4.2
CN(C(=O)COC(=O)c1cncc(Br)c1)C1CCCCC1 | 0.67 | 2.0 | 2.2 | -7% | -2 | -0.2 | 4.1
CCOC(=O)N1CCN(C(=O)c2ccc(CNS(=O)(=O)c3ccc(NC(C)=O)cc3)cc2)CC1 | 0.64 | 2.1 | 0.6 | -6% | 2 | 0.6 | 3.9
CSc1ccc(CNC(=O)Cc2ccc(NC(=O)C3=C(C)OCCS3)cc2)cc1 | 0.73 | -3.5 | 5.9 | -3% | 19 | -0.6 | 1.7
Fc1ccccc1OCCCCCCN1CCCC1 | 0.66 | -12 | -0.6 | -3% | -6 | 0.1 | -2.6
CN1c2ccc(Cl)cc2C(=O)NC1c1ccc([N+](=O)[O-])s1 (stereo unspecified) | 0.59 | -2.3 | 7.8 | 3% | 0 | 0.4 | -2.8
CC(C)C(c1nnnn1Cc1ccccc1)N1CCc2ccccc2C1 (stereo unspecified) | 0.73 | 1.5 | 1.5 | -5% | 6 | -0.1 | 1.2
O=C(CCc1nc2ccccc2c(=O)[nH]1)Nc1cc(C(F)(F)F)ccc1N1CCOCC1 | 0.69 | -2.7 | -2.2 | -1% | 1 | 0.2 | 0.0
Cc1ccc(S(=O)(=O)N2CCN(C(=O)Cn3cnc4c3c(=O)n(C)c(=O)n4C)CC2)cc1C | 0.71 | 1.3 | -2.5 | -2% | 1 | 0.3 | 2.3
Cc1ncoc1C(=O)N1CCCC(C(=O)c2cccc(C(F)(F)F)c2)C1 (stereo unspecified) | 0.71 | 6.0 | 5.3 | 0% | -11 | 0.8 | 1.9
CCOC(=O)COn1c(=O)c(-c2ccc(F)cc2)[n+]([O-])c2ccccc21 | 0.7 | -1.0 | -8.9 | -1% | 20 | -0.1 | -3.8
CCOc1ccc(N2C(=O)/C(=C/c3cccs3)N(CC(=O)OC)C2=S)cc1 | 0.76 | -7.1 | 1.5 | -6% | -6 | 1.2 | -1.4
COc1cccc(CNC(=O)CCC2CCCN(C(=O)c3cc(C)on3)C2)c1 (stereo unspecified) | 0.71 | -4.5 | 3.8 | 4% | 12 | 0.9 | 0.5
O=C(O)CCC(=O)N1CC=C(c2ccccc2)CC1 | 0.75 | 0.5 | -1.2 | ? | -18 | 1.0 | 1.0
Cc1cccc(NC(=O)C2CCN(S(=O)(=O)c3cccc4cccnc34)CC2)n1 | 0.76 | -1.9 | 2.6 | 0% | -1 | 0.0 | -2.5
Cc1nn(Cc2ccccc2Cl)c(C)c1NC(=O)CSc1n[nH]c(C)c1[N+](=O)[O-] | 0.68 | 2.2 | 1.2 | 29% | / | -0.5 | /
N#C/C(=C\Nc1ccc(Cl)cn1)S(=O)(=O)c1ccccc1 | 0.6 | 2.4 | 2.1 | 10% | -6 | -0.4 | -4.1
CCCn1c(=N)n(CC(=O)O)c2ccccc21 | 0.68 | 0.6 | 3.3 | 0% | 3 | 1.7 | 0.2
S=C(NCCc1ccccc1)N1CCn2cccc2C1c1ccncc1 (stereo unspecified) | / | 1.3 | / | 31% | 4 | 1.0 | 2.6
N#CCCN1CCN(CCC#N)C1=S | 0.7 | / | 2.0 | -6% | -5 | / | -0.3
CC(C)[C@H](NC(=O)OCc1ccccc1)C(=O)N[C@@H](Cc1c[nH]c2ccccc12)C(=O)O | / | -4.0 | 1.2 | / | -1 | -0.1 | 2.2
O=C1NC(=O)/C(=C/c2ccccn2)S1 | 0.66 | 3.9 | 9.0 | 32% | -2 | 0.1 | -6.9
O=C(C1CCCO1)N1CCN(S(=O)(=O)c2ccc(Br)cc2)CC1 (stereo unspecified) | 0.72 | 1.1 | 1.0 | / | -3 | -0.5 | 4.4
CCOC(=O)N/N=C\c1ccc(C)s1 | / | 3.9 | / | / | 2 | -1.1 | -0.4
Cc1nc2ccc(NC(=O)c3ccc(=O)[nH]c3)cc2s1 | 0.7 | 0.7 | 2.9 | / | 3 | 2.6 | 3.3
Cc1nc2cc(NC(=O)c3ccc(Cl)cc3)ccc2n1C | 0.68 | -3.6 | -0.4 | / | -9 | -4.3 | -2.8
O=C(Nc1ccc(-c2noc(CCc3ccccc3)n2)cc1)c1cccnc1 | 0.72 | 1.6 | -3.9 | -15% | 24 | -0.4 | 3.6
FC(F)(F)c1cccc(CNC(=S)Nc2ccccc2)c1 | 0.6 | 2.0 | 0.5 | -4% | 7 | 2.4 | -2.9
COc1ccc(-c2[nH]ncc2CNCc2cc(C)n(C)n2)c(F)c1 | 0.7 | -3.9 | -21 | 1% | -19 | -1.0 | 3.7
CN1CC(c2ccccc2)Oc2ccccc2C1=S (stereo unspecified) | 0.64 | 2.2 | 6.3 | / | -1 | -0.1 | 3.5
Cc1cccc(NC(=O)c2ccc(OCc3c(C)noc3C)cc2)c1C | 0.68 | -2.9 | 2.0 | / | 21 | 2.0 | 0.5
CN(C)S(=O)(=O)c1ccc(NC(=O)CSc2ncnc3ccccc23)cc1 | 0.68 | / | 7.3 | 23% | 16 | 0.1 | -3.2
CC(=O)c1c(C)[nH]c(C(=O)NCCCN2CCCC2)c1C | 0.73 | 1.1 | 2.3 | -2% | 2 | 0.6 | 2.0
CC(C)(C)NC(=O)CN(C(=O)CNC(=O)c1cccs1)c1ccc2c(c1)OCCO2 | 0.67 | -0.4 | 4.1 | 7% | -8 | -0.2 | -3.0
CC1=NN(C(=O)Cn2nc([N+](=O)[O-])cc2C)C(O)(C(F)(F)F)C1 (stereo unspecified) | 0.71 | 0.7 | 3.0 | / | 21 | 0.8 | 0.5
O=C1CC(N2CCN(S(=O)(=O)c3ccccc3)CC2)C(=O)N1c1ccccc1 (stereo unspecified) | 0.66 | 0.0 | 3.4 | 1% | 11 | -0.1 | 2.9
O=C1Nc2c(c(=O)[nH]c(=O)n2-c2ccc(F)cc2)C1(NS(=O)(=O)c1ccccc1)C(F)(F)F (stereo unspecified) | 0.69 | 5.8 | 1.9 | 30% | -4 | 0.6 | 0.8
S=C1NC2(CCCCC2)Cc2ccccc21 | 0.68 | -4.4 | 0.4 | -4% | 0 | -0.1 | 1.0

Source: PubChem
